GIV Gai3 FP = blocks GIV peptide binding to rat Galpha-i3 | P08753 | Galpha-i3/FITC-GIV peptide fluorescence polarization, 90 min; stronger effect = lower value; scaled: aluminum fluoride 0%, vehicle 100% | percent of control (FP), % (concentration not given with the values) | hit rate 0.42% among 210,000;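 active = replicate mean at 85% of control or lower, very high polarization wells dropped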;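 also: wells of about 15 µL received 100 nL stock; the first replicate is given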
Target sequence (P08753 whole entry, looked up): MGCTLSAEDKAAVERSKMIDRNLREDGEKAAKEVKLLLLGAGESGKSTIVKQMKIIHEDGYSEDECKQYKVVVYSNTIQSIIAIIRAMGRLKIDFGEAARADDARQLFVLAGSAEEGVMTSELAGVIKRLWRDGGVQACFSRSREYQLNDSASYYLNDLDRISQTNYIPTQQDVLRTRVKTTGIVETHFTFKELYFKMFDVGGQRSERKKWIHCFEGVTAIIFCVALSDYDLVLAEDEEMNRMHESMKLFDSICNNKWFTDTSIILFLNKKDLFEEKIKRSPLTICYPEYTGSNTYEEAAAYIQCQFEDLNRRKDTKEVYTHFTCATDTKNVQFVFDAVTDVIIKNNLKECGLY
HCMV UL50-53 inh = disrupts HCMV UL50-UL53 complex binding. inhibition, % (no concentration beside the values). AID 1918969. HTRF UL50-UL53 interaction, normalized percent inhibition. hit rate 0.15% among 190,000;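 active = both replicates at 50% or more, plus weaker picks with an unusually low signal ratio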;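 also: stock transfer was 100 nL into about 20 µL; 0% = negative control wells and 100% = wells with untagged competitor protein; inactives centre near -12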
Sa growth 42C = blocks Staphylococcus aureus growth; S. aureus RN4220 growth, OD600, 20 h, 42 °C; stronger effect = lower value; relative growth, % (no concentration beside the values); hit rate 0.53% among 170,000;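 active = growth at 42 °C up to 50% and 20 or more points under that at 30 °C, or under 10% at both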;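 also: 300 nL library stock went into each well; scaled to the means of positive and negative controls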
Sa growth 42C second temp = further read-out of Sa growth 42C, marked with its call; relative growth, %; measured here: growth at 30 °C;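 optical density after 20 h as mean of two plates; 100% = untreated growth and lower means inhibition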
The depositor's hits bear a star; · = no result given; & = joins results of further samples. Compounds as they come. About 0.83% of those tested had a hit in this group.

no.	mol	GIV Gai3 FP	HCMV UL50-53 inh
1	Cc1ccc(-c2noc(CCCC(=O)N3CCCCC3)n2)cc1	103	1
2	Cc1nc(N(C)C)c2sc(=S)n(C)c2n1	103	3
3	O=C(O)C1CCN(C(=O)N2CCOc3ccccc32)CC1	100	·
4	CCN1C(=O)c2ccccc2Sc2ccc(NC(=O)Cc3ccc(OC)c(OC)c3)cc21	100	·
5	Cn1cc(S(=O)(=O)N2CCCC2)cc1C(=O)N1CCN(c2ccccc2)CC1	97	·
6	Cc1oc(-c2ccccc2)nc1Cn1c(C(=O)c2cccc(F)c2)nc2ccccc21	114	2
7	O=C(CS(=O)(=O)c1ccccc1)Nc1ccccc1O	104	-1
8	COC(=O)c1c(NC(=O)C2CCCC2)sc2c1CCCC2	·	8
9	COC(=O)N=Nc1c(O)[nH]c2ccc(Br)cc12	93	-118
10	Cc1ccc(C)c2sc(N3CCN(C(=O)c4ccco4)CC3)nc12	97	·
11	O=C(CCS(=O)(=O)c1ccccc1)Nc1cccc(-c2nc3ccccc3o2)c1	103	-18
12	CCC(=O)N1c2cc(Cl)ccc2-n2c(nn(C(=O)CC)c2=O)N1C(=O)CC	100	-58
13	CCS(=O)(=O)N1CCc2cc(C(=O)Nc3cc(C)cc(C)c3)ccc21	103	-12
14	CS(=O)(=O)c1ccc2nc(NC(=O)Oc3ccccc3)sc2c1	107	·
15	O=C(C1CCN(c2nc3ccccc3n3cccc23)CC1)N1CCN(c2ccc(F)cc2)CC1	102	-14

no.	Sa growth 42C	Sa growth 42C second temp
1	104	97
2	91	96
3	85	94
4	94	99
5	101	86
6	·	·
7	103	103
8	99	107
9	76	42
10	103	98
11	104	91
12	98	75
13	101	91
14	96	91
15	·	·

Complete entries, looked up by structure. Order of screens: GIV Gai3 FP | HCMV UL50-53 inh | Sa growth 42C | Sa growth 42C second temp
O=C(CS(=O)(=O)c1ccccc1)Nc1ccccc1O is listed with 104 | -1 | 103 | 103
O=C(CCS(=O)(=O)c1ccccc1)Nc1cccc(-c2nc3ccccc3o2)c1 is listed with 103 | -18 | 104 | 91
COC(=O)N=Nc1c(O)[nH]c2ccc(Br)cc12 is listed with 93 | -118 | 76 | 42
CCN1C(=O)c2ccccc2Sc2ccc(NC(=O)Cc3ccc(OC)c(OC)c3)cc21 is listed with 100 | · | 94 | 99
Cc1oc(-c2ccccc2)nc1Cn1c(C(=O)c2cccc(F)c2)nc2ccccc21 is listed with 114 | 2 | · | ·

New compounds follow.
no.	mol	GIV Gai3 FP	HCMV UL50-53 inh
16	COCCn1c(N)cc(=O)[nH]c1=S	108	-22
17	CCS(=O)(=O)Nc1cccc(-c2cn3ccccc3n2)c1	102	-13
18	CC(C)OCCCn1c(=O)c2cc(Cl)ccc2n2c(SCc3ccccc3)nnc12	104	-16
19	COC(=O)c1ccc(Cl)cc1NC(=O)CSc1ncc(S(=O)(=O)c2ccc(Br)cc2)c(=O)[nH]1	111	3
20	COC(=O)C(O)(C1=C(N2CCOCC2)/C(=C\c2ccccc2)CC1)C(F)(F)F (stereo not given)	·	-15
21	O=C1CS/C(=N\C(=O)N2c3ccccc3Sc3ccccc32)N1	·	-9
22	CC1CN(C(=S)NC(=O)c2ccc(Cl)cc2)CC(C)O1 (stereo not given)	105	-2
23	O=C(c1ccccc1)C1CCN(C(=O)Nc2ccc(Cl)cc2)CC1	105	-24
24	CCOC(=O)c1ccc(N=C2SC(C(=O)Nc3ccc(F)cc3)CC(=O)N2C)cc1 (stereo not given)	99	-27
25	COc1ccc(C(=O)N=C2CCC(C#N)=C3c4cc(OC)c(OC)cc4CCN23)cc1	102	·
26	CCCn1c(SCC(=O)N(C2CCCCC2)C2CCCCC2)nc2c1c(=O)n(C)c(=O)n2C	98	-20
27	Cc1cc(C)nc(SCCC(=O)Nc2ccccc2)n1	107	-4
28	Cc1ccc(NS(=O)(=O)c2cc(C(=O)O)ccc2Br)cc1	100	·
29	CCCCN(CC)C(=O)CSc1nc2n[nH]c(C)c2c(=N)n1-c1cccc(OC)c1	100	·
30	CCN(Cc1ccccc1)C(=O)CN(C)S(=O)(=O)c1ccc2c(c1)CC(C)N2C(=O)C1CC1 (stereo not given)	115	-1

no.	Sa growth 42C	Sa growth 42C second temp
16	88	90
17	108	87
18	·	·
19	·	·
20	119	80
21	111	57
22	118	87
23	108	87
24	·	·
25	98	61
26	95	94
27	117	90
28	89	97
29	88	86
30	·	·

The results go on.
no.	mol	GIV Gai3 FP	HCMV UL50-53 inh
31	O=C1CCCN1C(=O)CCC(=O)N1CCCC1=O	100	-10
32	COc1cccc2cc(C(=O)OCCN3CCOCC3)c(=O)oc12	109	-66
33	CCOC(=O)c1ccccc1NC(=O)Cn1nnc2sc3c(c2c1=O)CCC(C)C3 (stereo not given)	108	-15
34	Cc1nnc(NC(=O)CSc2nc3c([nH]c4ccccc43)c(=O)n2-c2cccc(Cl)c2)s1	102	·
35	Cn1ncc2c(Nc3cccc(Cl)c3)nc(N3CCN(C4CCCCC4)CC3)nc21	97	9
36	Clc1ccc(Nc2nc(-c3ccccc3)c3cc(Cl)ccc3n2)cc1	106	0
37	NC(=S)n1[nH]c(-c2ccccc2)c(N=Nc2nccs2)c1=O	97	-90
38	O=c1[nH]c(=O)c2[nH]cnc2[nH]1	107	8&-20
39	O=C(NCc1cccs1)c1cnc2ccccn2c1=O	100	·
40	CC(C)C(=O)N=c1scc(-c2ccccc2)n1-c1ccccc1Cl	·	-22
41	CCOC(=O)c1c(C)oc2ncnc(Nc3cc(Cl)ccc3OC)c12	105	·
42	COc1ccc(CN2CN=C(NS(=O)(=O)c3ccc(C)cc3)NC2)cc1	104	-35
43	CC/C(Cc1ccccc1)=N/NS(C)(=O)=O	100	-17
44	Cc1nc(-c2cccnc2)[nH]c(=O)c1CC1CC1	99	-4
45	Cc1ccc(CNC(=O)Cn2c(SCc3ccccc3F)nc3cccnc32)cc1	96	·

no.	Sa growth 42C	Sa growth 42C second temp
31	126	92
32	98	87
33	·	·
34	118	90
35	·	·
36	107	96
37	73	29
38	100	99
39	104	86
40	117	90
41	103	92
42	·	·
43	109	105
44	107	46
45	87	81

More entries.
no.	mol	GIV Gai3 FP	HCMV UL50-53 inh
46	O=C(NC1CCCCC1)C1OC(c2ccccc2)OC1C(=O)NC1CCCCC1 (stereo not given)	96	-12
47	N#CCCn1cc(/C=N/NC(N)=S)c(-c2ccccc2)n1	·	-27
48	CCOC(=O)c1cnn(-c2cc(C)nc3c(C)c(-c4ccccc4)nn23)c1N	104	-28
49	COc1ccccc1C(=O)OCC(=O)Nc1ccccc1	·	-16
50	CC(C)Oc1ccc(/C=C/C(=O)Nc2noc3ccccc23)cc1	105	-9
51	CCc1ccc(NS(=O)(=O)c2ccc3[nH]cc(C(=O)NCc4ccco4)c(=O)c3c2)cc1	110	5
52	CCc1nc2nc3c(c(N4CCN(c5cc(Cl)ccc5C)CC4)n2n1)CCC3	104	-18
53	CCN(CC)C(=O)CSc1nnc2sc3ccccc3n12	·	-25
54	CCN(CCCNC(=O)c1cc(Nc2ccc(OC)cc2OC)nc2ccccc12)c1cccc(C)c1	103	-8
55	CNC(=O)Cn1cc2c(n1)CCC(C)C2 (stereo not given)	103	·
56	N#CCSc1nc(-c2cccs2)cc(-c2cccs2)c1C#N	109	13
57	Cc1ccccc1-c1nc(CS(=O)(=O)CC(=O)Nc2cc(Cl)cc(Cl)c2)c(C)o1	101	0
58	Cc1c(C(=O)NCCc2ccc(Cl)cc2)cccc1-n1cnc2cccnc21	111	·
59	O=C(/C=C/c1ccccc1)OCC(=O)c1ccc[nH]1	·	-23
60	CN(C)S(=O)(=O)c1ccc(C(=O)OCC2COC(C)(C)O2)cc1 (stereo not given)	·	2

no.	Sa growth 42C	Sa growth 42C second temp
46	104	95
47	67	85
48	·	·
49	111	83
50	99	85
51	96	78
52	·	·
53	93	92
54	107	90
55	123	92
56	99	80
57	100	97
58	121	90
59	101	94
60	96	93

Following part
no.	mol	GIV Gai3 FP	HCMV UL50-53 inh
61	CCN(CC)S(=O)(=O)c1ccc2c(c1)N(CC(=O)NCc1ccccc1)C(=O)CS2	100	-16
62	COc1ccc(-c2[nH]c(SC)nc(=S)c2C#N)cc1	106	-19
63	CCS(=O)(=O)N1CCC(NC(=O)C(Cc2ccc(OC)c(OC)c2)NC(C)=O)CC1 (stereo not given)	101	6
64	COc1cc(-c2nc3ccccc3c(=O)n2NCc2cccc(Br)c2)cc(OC)c1OC	101	-20
65	Cc1c(Cl)cccc1NC(=O)CCC(=O)N1CCSc2ccccc21	106	-17
66	COc1ccc2c(C)c(CCC(=O)NCCc3ccc(Cl)cc3)c(=O)oc2c1	96	-23
67	CC(C)(c1ccccc1)c1ccc(OCCN2CCOCC2)cc1	95	·
68	CCOc1ccccc1NC(=O)C1COc2ccccc2O1 (stereo not given)	105	-26
69	Cc1ccc(Cl)cc1N1CCN(C(=O)CCNS(=O)(=O)c2ccc3c(c2)CCC(=O)N3)CC1	97	·
70	O=C(O)CSc1cc(C(F)(F)F)nc2ccccc12	100	-16
71	CNC(=O)CSc1nc2ccccc2c(=O)n1C	100	-18
72	Cc1c(C(=O)OCC(=O)c2ccc(Cl)s2)sc2nc3n(c(=O)c12)CCC3	·	-6
73	O=C(Nc1cc2ccc(O)cc2oc1=O)c1ccc(F)cc1	102	·
74	COC(=O)c1ccc(OCC(O)Cn2c(C)[n+](C)c3ccccc32)cc1 (stereo not given)	108	·
75	COc1cc2c(cc1NC(=O)C(C)N1CCC(C)CC1)oc1ccccc12 (stereo not given)	·	-4

no.	Sa growth 42C	Sa growth 42C second temp
61	112	78
62	96	79
63	105	107
64	·	·
65	·	·
66	86	77
67	100	106
68	·	·
69	93	56
70	94	92
71	110	81
72	112	88
73	101	85
74	23	0
75	88	91

Molecules above containing a CF3 group (2):
no.	mol	GIV Gai3 FP	HCMV UL50-53 inh
20	COC(=O)C(O)(C1=C(N2CCOCC2)/C(=C\c2ccccc2)CC1)C(F)(F)F (stereo not given)	·	-15
70	O=C(O)CSc1cc(C(F)(F)F)nc2ccccc12	100	-16

no.	Sa growth 42C	Sa growth 42C second temp
20	119	80
70	94	92

Next section.
no.	mol	GIV Gai3 FP	HCMV UL50-53 inh
76	CC(/C=N/NC(=O)Cc1cccn1C)=C\c1ccco1	115	-10
77	COC(=O)c1c(NC(=O)CS(=O)(=O)c2ccc(C)cc2)sc2c1CCCC2	102&105	·
78	COc1ccc(OCC(O)CNS(=O)(=O)c2cc(Cl)sc2Cl)cc1 (stereo not given)	106	-13
79	CC(C)CCNC(=O)CSc1nnc2n(CC(C)C)c(=O)c3sccc3n12	107	-13
80	CC(C)C(=O)Nc1nc2nc(-c3ccccc3)cc(=O)n2[nH]1	98	-12
81	CCOc1ccccc1NC(=O)c1ccc2c(Cl)c3c(nc2c1)CCC3	96	-27
82	O=C(O)CCCNCc1ccc(Cl)cc1	105	-32
83	CC(=O)OCCOc1nc(N(C)C)nc(N(C)C)n1	108	0
84	CNC(C)c1ccccc1 (stereo not given)	·	-33
85	CC1SC(c2cccnc2)N(c2ccc(Cl)cc2)C1=O (stereo not given)	102	0
86	O=C(Nc1ccc2c(c1)CCN(Cc1ncn[nH]1)C2)c1ccccc1-c1ccc(C(F)(F)F)cc1	106	-24
87	CN(C)S(=O)(=O)Nc1ccc2c(c1)oc1ccccc12	105	-2
88	O=C(O)/C=C\C(=O)Nc1ccc2c(c1)OCCO2	96	2
89	CCOC(=O)CSc1nnc(Nc2ccc(Cl)cc2)n1-c1ccc(Cl)cc1	100	-13
90	Cc1ccc(NC(=O)CSc2nc3ccc(NC(=O)CCc4ccccc4)cc3s2)cc1	99	-22

no.	Sa growth 42C	Sa growth 42C second temp
76	95	97
77	113	90
78	92	96
79	·	·
80	99	87
81	99	87
82	96	94
83	92	94
84	97	94
85	106	99
86	·	·
87	113	101
88	91	96
89	·	·
90	101	81

Compound activity deposited in PubChem by ICCB-Longwood Screening Facility, Harvard Medical School.
